Six1-Eya2 blk: inhibitors of human Six1/Eya2 interaction. Q15475+O00167. hit rate 0.56% among 360,000. AlphaScreen GST-Six1/His-Eya2 binding, biochemical; stronger effect = lower value; control for the full effect not named in the record. AID 651725. activity change, % (concentration not given with the values); in the data active = activity change below about -65%; inconclusive = about -30% to -65%; inactive = above about -30%; note: % is set by controls: 0 for no effect and ±100 for the full control effect
Target sequence (O00167 whole entry, looked up): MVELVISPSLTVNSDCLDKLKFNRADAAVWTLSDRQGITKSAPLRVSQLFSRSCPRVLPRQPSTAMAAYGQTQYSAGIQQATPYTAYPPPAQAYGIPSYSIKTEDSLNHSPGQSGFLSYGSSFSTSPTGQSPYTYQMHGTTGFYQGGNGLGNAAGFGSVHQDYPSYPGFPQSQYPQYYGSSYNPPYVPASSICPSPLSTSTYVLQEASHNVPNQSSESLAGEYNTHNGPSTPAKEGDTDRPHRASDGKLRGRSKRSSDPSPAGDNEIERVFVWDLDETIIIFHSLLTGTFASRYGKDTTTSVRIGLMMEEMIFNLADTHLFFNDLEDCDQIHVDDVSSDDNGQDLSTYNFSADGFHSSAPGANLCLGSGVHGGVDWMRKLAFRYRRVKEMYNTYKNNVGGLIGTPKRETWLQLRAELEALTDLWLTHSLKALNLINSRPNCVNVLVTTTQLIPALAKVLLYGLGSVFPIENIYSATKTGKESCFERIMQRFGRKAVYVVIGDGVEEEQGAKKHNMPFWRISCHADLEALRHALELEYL
Target sequence (Q15475 whole entry, looked up): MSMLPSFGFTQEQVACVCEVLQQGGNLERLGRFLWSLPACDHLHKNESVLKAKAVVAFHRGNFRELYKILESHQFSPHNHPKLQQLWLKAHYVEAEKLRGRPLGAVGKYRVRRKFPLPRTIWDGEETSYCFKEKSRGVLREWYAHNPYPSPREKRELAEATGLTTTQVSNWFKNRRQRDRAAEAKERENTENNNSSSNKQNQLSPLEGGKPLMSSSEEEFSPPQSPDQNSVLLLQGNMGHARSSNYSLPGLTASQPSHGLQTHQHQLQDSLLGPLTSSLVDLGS
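Six1/Eya2 binding was read as AlphaScreen signal after compounds were pinned into GST-Six1 plus His-tagged Eya2 (5X stock 250/500 nM) in pH 8.0 Tris/NaCl/TCEP buffer, beads added, then incubated 1 h, 37 C, dark.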
PINK1 modulator: PINK1 expression modulation; PINK1 immunofluorescence, high-content cytometry, 24 h; Potency, µM (series often up to 76.6 µM), inactives show at the top dose activation (PINK1 increase), hits mostly activators; hit rate 0.2% among 410,000; active = well fitted activation curve with a large enough effect; inconclusive = small, poorly fitted or top-dose-only effect; inactive = flat fitted curve, though single readings scatter; cell line not stated here;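 note: potency is the fitted concentration of half-maximal effect; % of control where 0% means no effect; nearly all actives have a fitted effect of over 65% in size; a mitochondrial uncoupler was the plate control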
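Readout is PINK1 immunofluorescence, quantified alongside mitochondrial, cell and nuclear markers by laser-scanning microplate cytometry. Cells from a stable line were exposed to compound titrations (5 concentrations) for 24 hours, with CCCP controls.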
CtBP-E1A blk: inhibitors of CtBP/E1A interaction; AlphaScreen GST-E1A/His-CtBP binding, 1536-well; stronger effect = lower value; control for the full effect not named in the record; activity change, % (test concentration not listed); hit rate 0.49% among 340,000; AID 651724; in the data active means activity change below about -65%; inconclusive means about -30% to -65%; inactive means above about -30%; note: % is set by controls: 0 for no effect and ±100 for the full control effect; compound concentration not given in the record
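GST-E1A and His-tagged CtBP (125 nM each as 5X stock) were preincubated with pin-transferred compound for 2 h at 37 °C in the dark, then glutathione donor and nickel acceptor beads were added for 1 h before AlphaScreen reading.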
TRPML1 agonist: agonists of human TRPML1 channel | Q9GZU1 | TRPML1-expressing cells, Ca2+ dye fluorescence, FDSS; host cell line not named in the record; reference of the full effect not given here | activation, % (concentration not given with the values) | hit rate 0.12% among 410,000; in the data active = activation above about 50%; inconclusive = about 30% to 50%; inactive = below about 30%; note: 0% is about no effect; the text of the record puts the active cut at 80%
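In this qHTS format, compounds were pin-transferred onto Ca8-dye-loaded TRPML1-DL cells induced with Tet overnight, and intracellular Ca2+ fluorescence was recorded kinetically for 110 s after a 10 s baseline. A subsequent 4uM final 54-4 (EC80) addition followed by a second 110 s read served as the antagonist phase.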
D2 agonist: agonists of human D2 dopamine receptor (beta-arrestin); P14416; DiscoveRx PathHunter D2 beta-arrestin, luminescence, 90 min; 100% = 57 uM dopamine signal; activation, % (test concentration not listed); hit rate 0.084% among 360,000; AID 624465; in the data active = activation above about 40%; inconclusive = about 15% to 40%; inactive = below about 15%; note: compound concentration not given in the record; the text of the record calls up to 30% inactive
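DiscoveRx PathHunter D2 beta-arrestin cells (2,100/well) attached overnight, then compound-stimulated 90 min at 37 C in HBSS/10 mM HEPES/0.1% Tween-20 buffer; beta-galactosidase complementation read by luminescence after 1 h at ambient temperature. Dopamine 57 uM final (EC100) as control.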
D2 PAM: positive allosteric modulators of human D2 dopamine receptor | hit rate 0.23% among 360,000 | DiscoveRx D2 beta-arrestin cells, luminescence, 90 min; 100% = 57 uM dopamine signal | potentiation, % (concentration not given with the values); active = potentiation of 50% or more; inconclusive = 30% to 50%; inactive = 30% or less;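 note: compound concentration not given in the record; tested on top of an EC20 dose of dopamine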
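D2 cells co-treated with compound plus 50 nM dopamine (EC20) for 90 min at 37 deg C to detect potentiation. Beta-arrestin recruitment was read as enzyme-fragment luminescence after 1 h at ambient temperature. Full response was set by 57 uM dopamine.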
The depositor's hits bear a star; ? = inconclusive; nt = no result given; & = joins results of further samples; [ ] = another dose, or the depositor's remark.

Every second line gives: Six1-Eya2 blk	PINK1 modulator	CtBP-E1A blk	TRPML1 agonist	D2 agonist	D2 PAM
> FC(F)(F)c1cc(C(F)(F)F)c2ccc(N/N=C/c3ccccc3)nc2n1
→ 3.4	1.0%	5.3	-0.4	-0.9	-10.8
> CCOc1ccccc1C(=O)OCC(=O)Nc1nnc(-c2ccccc2)o1
→ ?	-1.0%	-27.0	-0.2	-3.5	0.2
> Cc1nc2ccccc2c(=O)n1NC(=O)/C=C/c1ccccc1
→ -0.4	1.6%	-11.1	-1.1	1.2	2.3
> CCOP(=O)(C1=C(O)C(=O)C(C(C)(C)C)=CC1=O)c1ccccc1 (configuration not stated)
→ 2.6	-0.7%	3.7	0.3	-3.1	-7.2
> COc1cc(C(=O)Nc2nc(C)cc(C)n2)cc(OC)c1OC
→ 0.1	0.9%	-1.6	0.4	-2.8	-1.9
> COc1ccc(S(=O)(=O)c2c(O)c3ccc(C(=O)Nc4ccccc4Cl)cc3[nH]c2=O)cc1
→ -13.3	1.7%	-20.8	0.2	3.2	-4.7
> Cc1cccc(NC(=O)c2cc(NC(=O)c3ccco3)ccc2Cl)n1
→ 22.0	12.4%	0.0	0.8	0.5	-21.3
> COc1ccc(NC(=O)C2Cc3c(-c4ccco4)ccnc3O2)cc1OC (configuration not stated)
→ 1.7	2.1%	-5.8	-0.9	10.4	-0.3
> CC(C)n1c(-c2ccco2)csc1=Nc1cccnc1
→ -28.9	4.1%	-26.8	1.3	-1.2	8.4
> O=C(c1ccc(Cl)c(Cl)c1)N1CCC(=O)N([C@H](COCc2cccc(C(F)(F)F)c2)Cc2ccccc2)CC1
→ 0.6	-0.3%	-2.1	0.8	nt	nt
> CCCN1CCN(C(=O)c2ccc(CS(=O)c3ccc(Cl)cc3)o2)CC1 (configuration not stated)
→ 2.1	-1.0%	5.8	0.2	-7.2	-31.1
> c1ccc2c(c1)CN1CCCC1=N2
→ 2.7	-2.9%&-1.0%&4.5%	-14.6	0.4	-2.8	-1.4
> Cc1ccccc1S(=O)(=O)N1CCN(C)CC1
→ -9.5	-1.4%	-4.2	0.6	-6.4	-6.4
> COc1cc2c(cc1OC)C(=O)N1[C@H]3c4cc(Cl)ccc4OC[C@@H]3[C@H](c3ccccc3)[C@]1(C)C(=O)N2
→ -12.4	2.6%	-21.4	1.7	-2.6	-14.9
> Cc1occc1C(=O)Nc1c(Cl)cccc1Cl
→ 0.2	1.5%	6.1	1.3	-1.6	-5.2
> O=C(Nc1nnc(Cc2ccc(Cl)cc2)s1)c1ccco1
→ 2.1	1.9%[38.3 µM]	5.1	0.1	-1.5	-14.9
> CCOC(=O)C1=CN(Cc2cccc(F)c2)S(=O)(=O)N(CC)C1c1ccccc1 (configuration not stated)
→ 4.5	3.6%	13.1	1.6	-2.1	-4.5
> CCN1C(=O)c2cccc3c(S(=O)(=O)N(C(=O)c4ccncc4)c4ccc(OC)cc4)ccc1c23
→ -18.2	1.5%	-16.7	2.6	-1.3	6.3
> CC1(C)Cc2c(sc(NC(=O)c3ccccc3)c2C(=O)O)CO1
→ -9.4	-0.1%	-4.1	-0.5	-0.8	-4.8
> S=c1nc(-c2ccccc2)[nH]c2ccc(Br)cc12
→ 16.1	3.9%	0.0	0.0	-5.8	-8.3
> CC(C)OCC(O)CN1CCC(Cc2ccccc2)CC1 (configuration not stated)
→ 1.2	0.5%	nt	3.5	0.0	-16.6
> Cc1ccc(C2CC2C(=O)NNC(=S)Nc2ccc(Cl)cc2)cc1 (configuration not stated)
→ -1.4	nt	-12.7	1.1	-5.4	-46.1
> CN1CCN(c2ccc(NC(=O)c3ccc4c(c3)[nH]c(=O)n4Cc3ccc(F)cc3)cc2)CC1
→ -14.3	-0.1%	-1.8	0.1	-2.8	-25.3
> O=C(c1ccc([N+](=O)[O-])cc1)N1CCN(C(=O)c2cccnc2)CC1
→ -12.7	0.2%	-2.3	-0.7	-3.2	-5.5
> COCCSc1nnc(NC(=O)C2CCCO2)s1 (configuration not stated)
→ 3.6	nt	7.1	0.0	-2.7	3.0
> Cc1cc(F)ccc1N1CCC(N2CCN(C(C)C)C(CCO)C2)CC1 (configuration not stated)
→ 0.0	-0.9%	-2.4	-0.1	-5.2	-41.8
> OC(C#CCN1CCCC1)(c1ccccc1)c1cccnc1 (configuration not stated)
→ 1.1	-0.6%	?	-0.5	-1.6	-16.8
> N#C/C(=C/c1ccc(O)cc1)C(=O)NCc1ccc(Cl)cc1
→ -2.5	0.2%	23.4	4.0	-5.7	-2.5
> N[C@@H](C(=O)N[C@@H]1C(=O)N2C(C(=O)O)=C(Cl)CS[C@H]12)c1ccccc1
→ 1.1	1.8%	-21.7	0.5	-3.6	-12.5
> O=C(Nc1ccccc1Cl)c1cc(C2CCCN(C(=O)CCCc3ccccc3)C2)on1 (configuration not stated)
→ 11.7	1.3%	-17.4	3.6	-4.9	-2.7
> CCOC(=O)c1cc2c(ccn2C)n1CC(=O)N(Cc1ccccc1)c1ccccc1
→ -29.3	6.0%	?	3.9	-3.3	-21.8
> O=C(NCC1CCCO1)c1ccc(S(=O)(=O)N2CCCCC2)cc1 (configuration not stated)
→ -1.6	-0.5%	6.5	-0.2	-2.7	-6.0
> CC(=O)C1=C(C)NC(=O)NC1c1ccccc1OCC(=O)NCCc1ccccc1 (configuration not stated)
→ -0.9	8.5%[38.3 µM]	6.0	-0.6	-1.4	9.2
> Fc1ccc2nc(N3CCCCC3)sc2c1
→ 28.9	5.8%	16.2	1.0	-3.0	-1.7
> CN(c1cccc(NC(=O)Cc2ccccc2)c1)S(C)(=O)=O
→ -2.3	?	-0.3	1.3	1.2	-5.4
> COc1ccc(NC(=O)c2ccc(OCC3CCCO3)cc2)cc1Cl (configuration not stated)
→ 2.5	10.8%	4.4	-0.3	7.7	25.4
> O=C(NCc1ccc(Cl)cc1)C1CCN(S(=O)(=O)c2cc([N+](=O)[O-])ccc2Cl)CC1
→ -14.4	3.1%	nt	0.8	?	4.4
> CC1(C)CN(c2ccc(N3CC(C)(C)C3=O)cc2)C1=O
→ -5.3	0.3%	-14.0	-0.1	-2.1	-4.2
> CCOc1ccc(OCC(=O)Nc2ccc(OC)cc2[N+](=O)[O-])cc1
→ -0.3	2.3%	-13.7	-0.2	-4.1	-1.2
> CCSc1nnc(-c2cccnc2)n1-c1ccc(Cl)c(C)c1
→ -2.7	4.0%[38.3 µM]	-1.7	2.9	-1.1	4.3
> Cc1cc(SCC(=O)c2cccs2)n2nc(C)c(-c3ccc(Cl)cc3)c2n1
→ 9.9	4.5%	11.2	0.1	-3.2	12.5
> COc1ccc(C)cc1NC(=O)CCc1ccc(S(=O)(=O)N2CCOCC2)cc1
→ 10.2	-1.2%	nt	-0.4	-1.5	-1.9
> Cc1cc(C)nc(SCC(=O)N/N=C/c2cccc([N+](=O)[O-])c2)n1
→ -2.3	6.3%	5.5	-0.2	-9.5	-7.3
> Cc1ccc(S(=O)(=O)NCc2n[nH]c(=S)n2C)cc1
→ 1.9	-0.3%	-4.3	0.3	-2.5	-22.9
> C[C@@]12CC(=O)NC1N(C(=O)c1cccc(C(F)(F)F)c1)C(c1ccccc1O)C2 (some centres not stated)
→ 5.7	-0.7%	5.7	0.7	-1.4	9.3
> COC(=O)C1=C(N)N(c2ccc(F)cc2)C2=C(C(=O)CCC2)C1c1ccc2c(c1)OCO2 (configuration not stated)
→ -3.5	13.7%	2.1	0.6	-2.4	-5.9
> c1cnc2ccc3ncccc3c2c1
→ -0.5	-0.7%	-2.7	nt	4.2	5.0
> O=C(CSCc1ccccc1)N/N=C/c1ccccc1OCc1ccccc1
→ -8.4	nt	8.9	0.3	-2.7	-20.4
> O=C(O)c1ccc(N2CCCCC2)cc1O
→ 4.5	-0.2%	nt	-0.9	-3.6	-2.9
> Cc1ccc(-n2c(O)c(C=Nc3cc(C)on3)c3ccccc3c2=O)c(C)c1
→ -18.6	-1.8%	-15.1	1.1	-0.5	-8.6
> CC(=O)c1cccc(NC(=S)NC(=O)CC(C)C)c1
→ -0.1	9.9%[38.3 µM]	8.4	-0.2	-2.2	-4.5
> CC(=O)c1ccccc1OCC(O)CNC1CCCC1 (configuration not stated)
→ -1.7	-1.4%	1.0	0.2	-3.8	-24.9
> O=C(Cc1ccccc1)N/N=C/c1cc2c(cc1Cl)OCO2
→ -12.5	4.2%	-4.9	0.8	-1.2	-32.9
> COc1ccc(/C=C/C(=O)N[C@H](C(=O)O)C(C)C)cc1
→ 4.0	2.0%	-0.5	-0.5	-5.7	-12.4
> O=C(CCNC(=O)C1CCN(S(=O)(=O)c2ccccc2)CC1)NCCc1cccc(F)c1
→ -0.4	5.9%	nt	0.3	0.0	3.6
> CN(C)CCn1ccc(O)c(Cc2ccc(Cl)cc2)c1=O
→ 5.7	-0.2%	nt	1.0	-5.1	-6.6
> C=CCOc1cccc(C2/C(=C(/O)c3ccc(F)cc3)C(=O)C(=O)N2CCN2CCOCC2)c1 (configuration not stated)
→ -1.3	0.4%	-1.2	-1.0	-1.1	-1.6
> O=C(O)CSc1nc(-c2cccs2)cc(C(F)(F)F)n1
→ 3.0	2.3%	5.1	0.3	-3.5	-7.9
> CCCc1sc(N)nc1-c1ccc(Cl)cc1
→ -9.1	2.5%	-2.0	5.0	-2.5	21.2
> O=C(NNS(=O)(=O)c1ccccc1)C(O)(c1ccccc1)c1ccccc1
→ 13.1	-3.5%	-0.6	0.3	4.1	-4.5

Other records follow.
Every second line gives: Six1-Eya2 blk	PINK1 modulator	CtBP-E1A blk	TRPML1 agonist	D2 agonist	D2 PAM
> Cc1cc(OCC(=O)N(C(C)C)C(C)C)ccc1Cl
→ 0.7	7.4%	5.9	-0.3	-2.2	-7.4
> COc1ccc(NC(=O)COC(=O)CC2CCCC2)cc1
→ 10.1	4.4%	3.9	-0.5	-3.3	-2.1
> COc1ccc(-c2cc(C(F)(F)F)nc(NCc3cccs3)n2)cc1
→ 40.5	?	40.3	1.8	-6.6	-2.9
> CN(CC(=O)NCc1ccc(F)cc1)CC(=O)Nc1ccc(Cl)c(C(F)(F)F)c1
→ 1.2	-0.4%	16.6	3.6	2.6	-52.2
> COCC(C)N=C1NN=C(c2ccc(NC(C)=O)cc2)CS1 (configuration not stated)
→ -0.1	-0.5%	-0.6	0.2	0.0	0.5
> Cc1cc(Br)ccc1SCC(=O)N1CCN(S(=O)(=O)c2ccccc2)CC1
→ -11.5	3.4%	-1.4	0.9	3.1	2.4
> C[C@@H]1CN([C@H](C)CO)C(=O)CCCn2cc(nn2)CO[C@H]1CN(C)C(=O)Nc1cccc2ccccc12
→ -1.4	1.0%	-4.1	-0.2	-0.9	7.0
> O=C1CCCC(O)=C1C=NCc1ccccc1
→ 22.6	-1.3%	2.2	2.8	-5.6	6.4
> Cc1ccc2c(c1)N(CC(=O)c1cccc(Cl)c1)C(=O)C(C)O2 (configuration not stated)
→ 10.4	3.2%	27.1	2.6	-3.4	-17.6
> O=C(c1ccccc1)N1CCN(c2ccc([N+](=O)[O-])c(NCc3cccnc3)c2)CC1
→ -14.5	-2.1%	-6.6	1.1	-0.5	-19.0
